Screening results as filed in PubChem.
E coli growth: inhibitors of Escherichia coli growth. 330,000 tested, 0.21% active. OD600 absorbance (concentration not given with the values). OD600, 23 h; hits give low values;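 active means OD600 absorbance below the run mean of sample wells minus 3.6 SD, in any replicate, cut at about 0.56 in these data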;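 further: stock transfer was 300 nL into about 60 µL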
* = called active by the depositor; & = joins results of further samples.

SMILES	E coli growth
CCOc1ccc(C2CC=C(C(=O)O)C(c3ccc(F)cc3)N2S(=O)(=O)c2ccc(C)cc2)cc1 (stereo unspecified)	0.66
CCC1=C(OC(=O)N(CC)CC)N2C(=O)OC(=NCc3ccccc3)[C@]2(C)C2C1=CCC1C(=O)N(c3ccccc3)C(=O)C12 (stereo partly specified)	0.72
CCOC1OC(C(=O)N2CCCCCCC2)=CC(c2cn(C(C)=O)c3ccccc23)C1CCCO (stereo unspecified)	0.71
C#CCOCCOCCOCCNc1nc(N2CCN(C(=O)CCCCCCCCCCNC(=O)Cn3cc(CCCCCN)nn3)CC2)nc(N2CCN(C(=O)CCCCCCCCCCNC(=O)C(CCC(=O)O)n3cc(CCCCCN)nn3)CC2)n1 (stereo unspecified)	0.65
COc1cc(C=C2NC(=O)N(Cc3ccccc3F)C2=O)cc(OC)c1O	0.63
CCN1C(=O)C2C(c3ccc(-c4ccc(C(C)=O)cc4)c(OC)c3)N[C@@](Cc3ccccc3)(C(=O)OC)C2C1=O (stereo partly specified)	0.76
COc1cc(C=C(NC(=O)c2ccccc2)C(=O)Nc2cccc(O)c2)c([N+](=O)[O-])cc1OC	0.73
CCOC1OC(C(=O)N2CCN(C)CC2)=CC(C2CCCCC2)C1CCCO (stereo unspecified)	0.68
CC(C)(C)OC(=O)CC1CC=CCC(CC(=O)NC(CO)Cc2ccccc2)C(=O)NC(C(C)(C)C)COC1=O (stereo unspecified)	0.66&0.68
FC(F)(F)c1cc(CCN2C(=S)NCC2Cc2ccccc2)cc(C(F)(F)F)c1 (stereo unspecified)	0.65
COc1ccc(-c2ccc(C3C4C=CCC(C)C4C(=O)N3Cc3ccccc3)c(F)c2)cc1 (stereo unspecified)	0.7
CC(NC(=O)c1nc[nH]c1C(=O)NC(Cc1ccccc1)C(=O)OCc1ccccc1)C(=O)OC(C)(C)C (stereo unspecified)	0.74
CCOC(=O)C1=CCC(c2cc3cc(OC)ccc3n2C)N(S(=O)(=O)c2ccc(C)cc2)C1C(=O)OCC (stereo unspecified)	0.75
COc1ccc(C=Cc2c(-c3ccc(OC)cc3)sc3ccc(N4CCOCC4)cc23)cc1	0.74
CC=CC(=O)Nc1cccc(C2=NOC3(C2)CC(C(N)=O)N(C(=O)c2cc([N+](=O)[O-])cc([N+](=O)[O-])c2C)C3)c1 (stereo unspecified)	0.7
O=c1cc(-c2ccc(O)c(O)c2)oc2c(C3OC(CO)C(O)C(O)C3O)c(O)cc(O)c12 (stereo unspecified)	0.69
CC(NC(=O)c1nc[nH]c1C(=O)NCc1ccccc1)c1ccccc1 (stereo unspecified)	0.63&0.64
CC(C)CC(NC(=O)c1nc[nH]c1C(=O)N1CCN(C(=O)OC(C)(C)C)CC1)C(=O)OCc1ccccc1 (stereo unspecified)	0.67
CC1CN(C(C)CO)C(=O)c2cc(NC(=O)Nc3ccc(C(F)(F)F)cc3)ccc2OC1CN(C)S(=O)(=O)c1cccs1 (stereo unspecified)	0.72
CC1CN(C(C)CO)C(=O)c2cccc(NC(=O)Nc3ccccc3)c2OC1CN(C)C(=O)Nc1ccc(C(F)(F)F)cc1 (stereo unspecified)	0.72
CC1(C)c2[nH]c3ccccc3c2CC2C(=O)N(c3cc(F)ccc3F)C(=O)N21 (stereo unspecified)	0.72
Cc1ccc2c(c1)C1C(CO2)C(c2ccccc2)[C@]2(C)C(=O)Nc3cc(F)ccc3C(=O)N12 (stereo partly specified)	0.69
O=C(NCC1CCCO1)C(=Cc1ccco1)NC(=O)c1ccccc1 (stereo unspecified)	0.74
COc1ccc(C2CC(=O)C=C(c3ccc(Oc4ccccc4)cc3)C2)cc1OC (stereo unspecified)	0.7
CC(C)(C)C1COC(=O)CCCC=CCC(CC(=O)NCCO)C(=O)N1 (stereo unspecified)	0.7
(more compounds)
SMILES	E coli growth
COC(=O)C1C2CC3c4[nH]c5cc(OC)ccc5c4CCN3CC2CC(OC(=O)c2cc(OC)c(OC)c(OC)c2)C1OC (stereo unspecified)	0.68
Cc1ccc(C2CC=C(C(=O)O)C(c3ccccc3F)N2S(=O)(=O)c2ccc(C)cc2)cc1 (stereo unspecified)	0.65
CCOC(=O)C1C2COc3ccc(C)cc3C2N2C(=O)CN(Cc3ccco3)C(=O)[C@@]12C (stereo partly specified)	0.68
CC1CC=CC2C1C(=O)N(Cc1ccccc1)C2c1ccc(F)c(-c2ccc(N(C)C)cc2)c1 (stereo unspecified)	0.73
CCCCN1C(=O)C(=O)NCC1CCCCN (stereo unspecified)	0.67
O=C1NC(Cc2ccccc2)C(=O)N2C1C[C@]1(Br)c3ccccc3N(S(=O)(=O)c3ccc(F)cc3)C21 (stereo partly specified)	0.66
CC[C@]12C(=O)N(C)CC(C3C(=O)N(Cc4ccccc4)C(=O)C31)N2C(=O)c1ccc(C(C)(C)C)cc1 (stereo partly specified)	0.68
CC(C)CC(NC(=O)OC(C)(C)C)c1cn(C(CCCCNC(=O)OC(C)(C)C)C(=O)N2CCN(C(=O)OC(C)(C)C)CC2)nn1 (stereo unspecified)	0.68
C=CCC(CC(=O)N(CCO)Cc1ccccc1)C(=O)NC(COC(=O)C(CC=C)Cc1ccc(F)cc1)c1ccccc1 (stereo unspecified)	0.68
COc1ccc2c(c1)OCC1C2N2C(=O)CN(Cc3ccc(C)cc3)C(=O)[C@@]2(C)C1c1ccccc1 (stereo partly specified)	0.73
COc1ccc(S(=O)(=O)N(C)CC2Oc3c(NC(=O)Nc4ccc5c(c4)OCO5)cccc3C(=O)N(C(C)CO)CC2C)cc1 (stereo unspecified)	0.64
CCNC(=O)C(=Cc1cccc([N+](=O)[O-])c1)NC(=O)c1ccc(C)cc1	0.74
C=C1C[C@]23C[C@@]1(O)CCC2[C@@]12C=CC(O)[C@@](C)(C(=O)O1)C2C3C(=O)O (stereo partly specified)	0.67
COc1ccc(C(=O)C(=CO)N=Nc2ccc(F)cc2)cc1	0.7
CCOC(=O)CN1C(=O)NC(c2ccc(Br)cc2)C(C(=O)OC)=C1C (stereo unspecified)	0.69
Cc1ccc(SCC(CC(C)C)N2CCN(CCc3ccccc3)CCC2=O)cc1 (stereo unspecified)	0.66
COc1ccc(C2CC(=O)C=C(c3cc(Cl)ccc3OC)C2)cc1 (stereo unspecified)	0.69
CCOC1OC(C(=O)Nc2ccccc2)=CC(c2cn(C(C)=O)c3ccccc23)C1CCCO (stereo unspecified)	0.67
O=C1C2C(c3cccc(C=Cc4ccccc4)c3)CC=CC2C(c2ccc3ccccc3c2)N1Cc1ccccc1 (stereo unspecified)	0.71
NC(=O)C(CC(=O)O)NC(=O)C1CCOc2c(I)cc([N+](=O)[O-])cc2C(=O)NC(CO)C(=O)NC(Cc2ccc(O)cc2)C(=O)N1 (stereo unspecified)	0.7
O=C(CN1C(=O)SC(=Cc2cccs2)C1=O)N1CCOCC1	0.71
CCCCCC(=O)Nc1cccc(C2=NOC3(C2)CC(C(N)=O)N(C(=O)c2ccccc2)C3)c1 (stereo unspecified)	0.64
CC1NC(=O)[C@@]2(C)C(c3ccccc3)C3COc4ccc(Cl)cc4C3N2C1=O (stereo partly specified)	0.7
CCOC(=O)CC1c2ccccc2S(=O)(=O)N1C1CC1 (stereo unspecified)	0.69
C[C@@]12C(=O)N(CCc3c[nH]c4ccccc34)CC(=O)N1C1c3ccccc3OCC1C2c1ccccc1 (stereo partly specified)	0.73

Arranged by formula weight (low to high): some entries from above
SMILES	E coli growth
CCCCN1C(=O)C(=O)NCC1CCCCN (stereo unspecified)	0.67
O=C(NCC1CCCO1)C(=Cc1ccco1)NC(=O)c1ccccc1 (stereo unspecified)	0.74
CC1(C)c2[nH]c3ccccc3c2CC2C(=O)N(c3cc(F)ccc3F)C(=O)N21 (stereo unspecified)	0.72
CCOC1OC(C(=O)N2CCN(C)CC2)=CC(C2CCCCC2)C1CCCO (stereo unspecified)	0.68
COc1ccc(C2CC(=O)C=C(c3ccc(Oc4ccccc4)cc3)C2)cc1OC (stereo unspecified)	0.7
FC(F)(F)c1cc(CCN2C(=S)NCC2Cc2ccccc2)cc(C(F)(F)F)c1 (stereo unspecified)	0.65
CC1CC=CC2C1C(=O)N(Cc1ccccc1)C2c1ccc(F)c(-c2ccc(N(C)C)cc2)c1 (stereo unspecified)	0.73
CCCCCC(=O)Nc1cccc(C2=NOC3(C2)CC(C(N)=O)N(C(=O)c2ccccc2)C3)c1 (stereo unspecified)	0.64
Cc1ccc(C2CC=C(C(=O)O)C(c3ccccc3F)N2S(=O)(=O)c2ccc(C)cc2)cc1 (stereo unspecified)	0.65
C[C@@]12C(=O)N(CCc3c[nH]c4ccccc34)CC(=O)N1C1c3ccccc3OCC1C2c1ccccc1 (stereo partly specified)	0.73
CCN1C(=O)C2C(c3ccc(-c4ccc(C(C)=O)cc4)c(OC)c3)N[C@@](Cc3ccccc3)(C(=O)OC)C2C1=O (stereo partly specified)	0.76
CC(C)(C)OC(=O)CC1CC=CCC(CC(=O)NC(CO)Cc2ccccc2)C(=O)NC(C(C)(C)C)COC1=O (stereo unspecified)	0.66&0.68
O=C1NC(Cc2ccccc2)C(=O)N2C1C[C@]1(Br)c3ccccc3N(S(=O)(=O)c3ccc(F)cc3)C21 (stereo partly specified)	0.66
C=CCC(CC(=O)N(CCO)Cc1ccccc1)C(=O)NC(COC(=O)C(CC=C)Cc1ccc(F)cc1)c1ccccc1 (stereo unspecified)	0.68
COC(=O)C1C2CC3c4[nH]c5cc(OC)ccc5c4CCN3CC2CC(OC(=O)c2cc(OC)c(OC)c(OC)c2)C1OC (stereo unspecified)	0.68
NC(=O)C(CC(=O)O)NC(=O)C1CCOc2c(I)cc([N+](=O)[O-])cc2C(=O)NC(CO)C(=O)NC(Cc2ccc(O)cc2)C(=O)N1 (stereo unspecified)	0.7

Continued.
SMILES	E coli growth
CC(C)CN1CCC(=O)N(C(CSc2ccc(Br)cc2)c2ccccc2)CC1 (stereo unspecified)	0.66
C#CCCOC(=O)N1C2=NC(C(=O)OC)=C(C(=O)OC)C3N(C)c4ccccc4[C@]23CC1C(=O)OC (stereo partly specified)	0.65
CC1CC[C@]2(C(=O)O)CC[C@]3(C)C(=CCC4[C@@]5(C)CCC(O)C(C)(C)C5CC[C@]43C)C2C1C (stereo partly specified)	0.7
CCCCC(CC(=O)c1ccccc1)C(OC(C)=O)C(=O)Oc1c(C(C)C)cccc1C(C)C (stereo unspecified)	0.67
O=C(OC1C(Cc2ccccc2)NS(=O)(=O)C2CC3C=C[C@]12O3)c1ccccc1Br (stereo partly specified)	0.69
OCCC1CC(O)C(O)[C@@]2(CCCCO2)O1 (stereo partly specified)	0.67&0.69&0.69
CCC(C)C(NC(=O)OC(C)(C)C)c1cn(C(CCCCNC(=O)OC(C)(C)C)C(=O)N2CCN(C(=O)OC(C)(C)C)CC2)nn1 (stereo unspecified)	0.67
COc1ccc(C2C3C(=O)N(C(C)(C)C)C(=O)C3[C@]3(Cc4ccccc4)C(=O)N(c4ccc(OC)cc4)C(=O)N23)cc1 (stereo partly specified)	0.69
CCCN1CCC(=O)N(C(CO)CC(C)C)CC1 (stereo unspecified)	0.69
Nc1nc2c(nc(Br)n2C2OC3COP(=O)(O)OC3C2O)c(=O)[nH]1 (stereo unspecified)	0.71
COc1cc2cnc(CCOC3CCCCO3)cc2cc1OC (stereo unspecified)	0.67
O=C1C=C(c2ccc3[nH]ccc3c2)CC(c2ccc(F)cc2)C1 (stereo unspecified)	0.67
C=CCC(CC(=O)N(CCO)Cc1ccccc1)C(=O)NCCOC(=O)C(CC=C)CC(=O)OC(C)(C)C (stereo unspecified)	0.68&0.67
CCCCCCCCCCCCN1C(CC(=O)O)c2cc(F)ccc2S1(=O)=O (stereo unspecified)	0.69
O=C(O)C1=CCC(c2ccc(Cl)cc2)N(S(=O)(=O)c2ccc(Cl)cc2)C1c1ccc(F)cc1 (stereo unspecified)	0.69
COC(=O)C1=C(C)N(CCc2cc(OC)c(OC)c(OC)c2)C(=O)NC1c1ccc(Br)cc1 (stereo unspecified)	0.66
CCOC(=O)CC1c2ccc(C(F)(F)F)cc2S(=O)(=O)N1C(C)C (stereo unspecified)	0.69
CCCCN1C(=N)N(C(CCC)CN2CCCC2CN2C(N)=NCC2Cc2ccccc2)CC1Cc1ccccc1 (stereo unspecified)	0.69
CCOC(=O)C1C2COc3ccc(Cl)cc3C2N2C(=O)C(CO)NC(=O)[C@@]12C (stereo partly specified)	0.68
O=C(Nc1ccc(C(=O)O)cc1)C(=Cc1ccc2c(c1)OCO2)NC(=O)c1ccc(Br)cc1	0.7
CCOC(=O)C1C2COc3ccccc3C2N2C(=O)c3cc(OC)ccc3NC(=O)[C@@]12C (stereo partly specified)	0.7
c1ccc(CCc2cn(CC3CCC(C4CCC(Cn5cc(CCc6ccccc6)nn5)O4)O3)nn2)cc1 (stereo unspecified)	0.68
CC1CN(C(C)CO)C(=O)Cc2cc(NS(=O)(=O)c3cccs3)ccc2OC1CN(C)S(=O)(=O)c1cn(C)cn1 (stereo unspecified)	0.62
CCOC(=O)C=CC1CC(c2ccccc2)(c2ccccc2)CO1 (stereo unspecified)	0.68
O=C(C1=CC(c2ccc(Br)cc2)CC(OCCCCO)O1)N1CCN(Cc2ccccc2)CC1 (stereo unspecified)	0.63&0.64
CCC(C)CN1C(=O)NC(CCc2ccccc2)C(C(C)=O)=C1C (stereo unspecified)	0.64
O=S1(=O)CCOCC(c2ccccc2)N1Cc1ccccc1F (stereo unspecified)	0.61
O=C(NC(Cc1ccc(Br)cc1)C(=O)O)OCC1c2ccccc2-c2ccccc21 (stereo unspecified)	0.7

Some of the compounds tested (hit frequency here may not be typical).
